From PubChem BioAssay
Six1-Eya2 blk: Six1/Eya2 interaction inhibition. Q15475+O00167. AlphaScreen GST-Six1/His-Eya2 binding, biochemical; hits give low values; control for the full effect not named in the record. activity change, % (no concentration beside the values). actives 0.56% (n = 360,000); in the data active = activity change below about -65%; inconclusive = about -30% to -65%; inactive = above about -30%; note: % is set by controls: 0 for no effect and ±100 for the full control effect; compound concentration not given in the record
Target sequence (O00167 whole entry, looked up): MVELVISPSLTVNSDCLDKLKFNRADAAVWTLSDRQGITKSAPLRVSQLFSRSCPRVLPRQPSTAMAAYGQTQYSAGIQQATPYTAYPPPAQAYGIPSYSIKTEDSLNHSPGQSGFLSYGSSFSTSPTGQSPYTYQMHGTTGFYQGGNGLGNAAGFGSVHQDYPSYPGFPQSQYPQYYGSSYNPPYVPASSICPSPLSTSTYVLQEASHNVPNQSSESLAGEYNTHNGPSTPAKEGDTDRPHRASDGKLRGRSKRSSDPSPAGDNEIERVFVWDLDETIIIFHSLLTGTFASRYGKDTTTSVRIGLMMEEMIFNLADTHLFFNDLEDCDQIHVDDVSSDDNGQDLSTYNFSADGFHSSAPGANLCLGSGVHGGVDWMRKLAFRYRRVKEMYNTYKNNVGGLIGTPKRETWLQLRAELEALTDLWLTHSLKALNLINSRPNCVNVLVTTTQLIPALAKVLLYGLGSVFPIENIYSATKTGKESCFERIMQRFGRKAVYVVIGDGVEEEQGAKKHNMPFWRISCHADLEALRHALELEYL
Target sequence (Q15475 whole entry, looked up): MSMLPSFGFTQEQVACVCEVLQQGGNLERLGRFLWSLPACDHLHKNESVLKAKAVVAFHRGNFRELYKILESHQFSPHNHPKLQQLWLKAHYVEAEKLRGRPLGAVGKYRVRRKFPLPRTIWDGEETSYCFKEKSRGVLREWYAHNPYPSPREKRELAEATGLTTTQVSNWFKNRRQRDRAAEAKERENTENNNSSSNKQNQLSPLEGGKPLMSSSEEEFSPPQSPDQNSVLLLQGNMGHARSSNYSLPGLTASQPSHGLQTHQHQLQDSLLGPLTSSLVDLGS
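Compounds are tested against tagged Six1 and Eya2 proteins bridged by glutathione donor and nickel acceptor beads; after a one-hour incubation at 37 °C without light, AlphaScreen emission is recorded.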
Sfp inh: blocks B. subtilis Sfp PPTase activity. Q9F4F7. Biochemical Sfp PPTase activity, qHTS. Potency, µM, without a hit: max response, negative = inhibition, usual class: inhibitors. actives 3.5% (n = 310,000); active = well fitted inhibition curve with a large enough effect; inconclusive = small, poorly fitted or top-dose-only effect, or another doubt; inactive = no such curve, though single readings can be large or run the other way;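 note: the enzyme is Sfp with the accession as filed and its product quenches rhodamine fluorescence; potency is the fitted concentration of half-maximal effect; 0% = enzyme reaction without inhibitor and -100% = no enzyme wells; top concentration of the series not given in the record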
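After 15 min at room temperature with compound, 15 nM Sfp received 5 uM rhodamine-CoA plus 12.5 uM BHQ-2-ybbR (50 mM Hepes pH 7.6, 10 mM MgCl2). Rate came from the fluorescence difference over 30 min, ex 525/em 598 nm.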
D2 potentiator: positive allosteric modulators of human D2 dopamine receptor; P14416; DiscoveRx D2 beta-arrestin cells, luminescence, 90 min; 100% = 57 uM dopamine signal; potentiation, % (no concentration beside the values); actives 0.23% (n = 360,000); AID 624464; active = potentiation of 50% or more; inconclusive = 30% to 50%; inactive = 30% or less;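 note: compound concentration not given in the record; tested on top of an EC20 dose of dopamine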
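PathHunter beta-arrestin assay in DiscoveRx D2 cells. Compounds were added with an EC20 of dopamine (50 nM final) for 90 min at 37 deg C. Luminescence was read 1 h after detection reagent, with 57 uM dopamine as the EC100 control.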
PINK1 expr mod: PINK1 expression modulation | PINK1 immunofluorescence, high-content cytometry, 24 h | Potency, µM (series often up to 76.6 µM), without a hit: at the top dose activation (PINK1 increase), hits mostly activators | actives 0.2% (n = 410,000); active = well fitted activation curve with a large enough effect; inconclusive = small, poorly fitted or top-dose-only effect; inactive = flat fitted curve, though single readings scatter; cell line not stated here;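 note: potency is the fitted concentration of half-maximal effect; % of control where 0% means no effect; nearly all actives have a fitted effect of over 65% in size; a mitochondrial uncoupler was the plate control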
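Cells are seeded, rested 12 hours, then given compound at five concentrations or DMSO for 24 hours. After fixation, blocking and antibody staining, PINK1 amount and mitochondrial localization are scored; CCCP serves as control.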
CtBP-E1A blk: inhibitors of CtBP/E1A interaction. AlphaScreen GST-E1A/His-CtBP binding, 1536-well; hits give low values; control for the full effect not named in the record. activity change, % (concentration not given with the values). actives 0.49% (n = 340,000); in the data active means activity change below about -65%; inconclusive means about -30% to -65%; inactive means above about -30%; note: % is set by controls: 0 for no effect and ±100 for the full control effect
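Protein mix (5X: 125 nM each GST-E1A, His-CtBP) was incubated with pinned compound 2 h at 37 deg C in dark, in 50 mM Tris pH 8.0 buffer with 300 mM NaCl. Glutathione donor and nickel acceptor beads followed; AlphaScreen signal read after 1 h.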
TRPV1 potentiator: potentiators of human vanilloid receptor 1 (TRPV1); potentiation, % at 8.33 µM; TRPV1-expressing cells, Fluo-8 calcium influx, capsaicin EC20 potentiation; host cell line not named in the record; control for the full effect not named in the record; Q8NER1; actives 0.02% (n = 320,000); active means potentiation above 80%; inconclusive means 30% to 80%; inactive means below 30%; note: 0% is about no effect
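Fluo-8 calcium influx in TRPV1-expressing cells, kinetic read (ex 480/em 520 nm). Compound added and read 3 min for agonist activity, followed by capsaicin at EC20 final and 2 min further read for enhancement.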
D2 ag: activates the human D2 dopamine receptor | P14416 | DiscoveRx PathHunter D2 beta-arrestin, luminescence, 90 min; 100% = 57 uM dopamine signal | activation, % (no concentration beside the values) | actives 0.084% (n = 360,000) | AID 624465; in the data active = activation above about 40%; inconclusive = about 15% to 40%; inactive = below about 15%; note: compound concentration not given in the record; the text of the record calls up to 30% inactive
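Agonist mode: compounds alone added to overnight-plated D2 PathHunter cells for 90 min at 37 C, with 57 uM final dopamine (EC100) defining full response. Beta-arrestin recruitment detected by chemiluminescent reagent, read after 1 h at ambient temperature.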
The depositor's hits bear a star; ? = inconclusive; / = not tested or not shown; & = joins results of further samples; [ ] = dose if it differs, or a comment. Hits appear at their usual frequency; 3.7% or so of the library scored in one or more.

SMILES	Six1-Eya2 blk	Sfp inh	D2 potentiator	PINK1 expr mod	CtBP-E1A blk	TRPV1 potentiator	D2 ag
COc1ccc(OC)c(N2CC(O)(c3cccs3)[N+]3=C2SCCC3)c1 (stereo unspecified)	13	2%	-48	-1.1%	-22	-17	-4.1
CN(CC(=O)Nc1ccc(Cl)c(C(F)(F)F)c1)C(=O)CCC(=O)c1ccccc1	-1	/	-4	0.6%	1	-3	-3.0
CCOc1cc(CNCc2cccnc2)cc(Br)c1OCC(N)=O	0	-23%	-11	1.2%	-1	4	-1.4
COc1ccccc1/C=C/C(=O)NC1CC2CCC1C2 (stereo unspecified)	0	2%	-41	1.9%	/	-1	-4.2
CCCn1cc(S(=O)(=O)c2ccc(Cl)cc2)c(=O)c2cc(OC)ccc21	-1	5%	-6	0.1%	-2	-23	-3.9
N=C(N)SCc1ccccn1	-29	5%	-11	-3.1%	?	?	-4.5
CCn1nc(C)c(/C=N/NC(=O)Cn2nnc(N)n2)c1C	-3	12%	-6	1.0%	-9	-4	-1.7
Cc1ccc(S(=O)(=O)c2c(COC(=O)c3ccc(Cl)cc3)c(-c3ccccc3)nn2C)cc1	7	17%	-8	1.7%	8	-8	-3.4
CC(C)(C)n1nnnc1C(c1ccccc1)N1CCN(c2c(Cl)cncc2Cl)CC1 (stereo unspecified)	0	/	/	7.0%	-1	/	/
COc1ccc(S(=O)(=O)N(C)CC(=O)NCC2CCCO2)cc1OC (stereo unspecified)	-6	16%	-1	2.2%	0	3	-3.1
CCNC(=O)C1(C)CCCN(C(=O)c2ccnc(Cl)c2)C1 (stereo unspecified)	9	/	-6	0.1%	-5	/	-1.5
C=CCNCCOc1ccc(C(C)(C)c2ccccc2)cc1	4	?	-38	17%	5	15	0.0
NC(=O)c1ccc(Nc2ccc3c(c2)CCC3)c([N+](=O)[O-])c1	-20	9%	3	2.5%	-6	-3	-3.4
COc1cc(CCC(=O)N2CCN(S(=O)(=O)c3ccc(C)c(C)c3)CC2)cc(OC)c1OC	16	6%	21	8.7%[38.3 µM]	43	11	-1.6
CCc1ccc(OCCOCC(O)CNC(C)(C)C)cc1 (stereo unspecified)	3	7%	-5	-0.5%	-11	11	-1.8
N#Cc1ccc(S(=O)(=O)N2CCCCC2c2cc(C(=O)NCc3ccccc3)no2)cc1 (stereo unspecified)	-5	/	1	-0.4%	1	/	-3.0
CCOC(=O)C(=O)NNc1ccccc1OC	8	19%	-5	-1.6%	10	6	3.0
CC1CCCCN1C(=O)c1ccccc1NC(=O)c1ccco1 (stereo unspecified)	2	14%	-16	0.8%	3	8	-0.7
Cc1ccc(CSCCNC(=O)CN(c2cccc([N+](=O)[O-])c2)S(C)(=O)=O)cc1	-3	18%	-4	0.5%	/	5	-4.8
Cc1nc2ccccc2c(=O)n1NC(=O)c1ccccc1Br	8	12%	-3	-0.3%	-3	9	-0.5
O=Cc1ccnc(-c2ccc(OC(=O)c3ccco3)cc2)n1	5	-5%	-3	12%	1	?	-4.3
O=C(COC(=O)CCCc1nc2ccccc2s1)NC(=O)NCc1ccco1	-5	5%	4	1.5%	0	18	1.7
Cc1ccc(NC(=S)NCc2ccc(Cl)cc2)c(OC(F)F)c1	2	2%	-25	23%	8	-5	1.3
CN(CCc1ccccn1)C(=O)CCC1CCCN(C(=O)c2ccc3c(c2)OCCO3)C1 (stereo unspecified)	4	-7%	-3	0.9%	5	-1	2.4
CCC(=O)C1CCCN(C(=O)CCc2nnc(-c3ccc4c(c3)OCO4)o2)C1 (stereo unspecified)	1	16%	-11	-2.0%	-10	8	-4.1
Cc1ccc(NC(=O)c2ccco2)nc1	0	/	-26	-1.1%	-6	/	-6.7
O=S(=O)(NCCSCc1c(Cl)cccc1Cl)c1ccc2c(c1)OCCO2	-4	20%	-11	-5.6%[38.3 µM]	-3	12	-1.0
Cc1ccc(S(=O)(=O)N2CCC[C@H]2C(=O)NC2CCCCC2)cc1	1	/	-8	2.2%	1	/	-1.8
N/C(=N\OC(=O)C12CC3CC(CC(C3)C1)C2)c1ccccc1	16	8%	-2	-5.6%[38.3 µM]	22	-5	0.9
CC1(C(=O)O)Oc2cccnc2NC1=O (stereo unspecified)	7	12%	-2	-1.2%	-2	-10	0.8

Some of the entries so far, with values under each structure:
Sequence of screens – Six1-Eya2 blk, Sfp inh, D2 potentiator, PINK1 expr mod, CtBP-E1A blk, TRPV1 potentiator, D2 ag
N#Cc1ccc(S(=O)(=O)N2CCCCC2c2cc(C(=O)NCc3ccccc3)no2)cc1 (stereo unspecified)
→ -5, /, 1, -0.4%, 1, /, -3.0
CCOC(=O)C(=O)NNc1ccccc1OC
→ 8, 19%, -5, -1.6%, 10, 6, 3.0
CC1CCCCN1C(=O)c1ccccc1NC(=O)c1ccco1 (stereo unspecified)
→ 2, 14%, -16, 0.8%, 3, 8, -0.7
Cc1ccc(CSCCNC(=O)CN(c2cccc([N+](=O)[O-])c2)S(C)(=O)=O)cc1
→ -3, 18%, -4, 0.5%, /, 5, -4.8
Cc1nc2ccccc2c(=O)n1NC(=O)c1ccccc1Br
→ 8, 12%, -3, -0.3%, -3, 9, -0.5
O=Cc1ccnc(-c2ccc(OC(=O)c3ccco3)cc2)n1
→ 5, -5%, -3, 12%, 1, ?, -4.3
O=C(COC(=O)CCCc1nc2ccccc2s1)NC(=O)NCc1ccco1
→ -5, 5%, 4, 1.5%, 0, 18, 1.7
Cc1ccc(NC(=S)NCc2ccc(Cl)cc2)c(OC(F)F)c1
→ 2, 2%, -25, 23%, 8, -5, 1.3
CN(CCc1ccccn1)C(=O)CCC1CCCN(C(=O)c2ccc3c(c2)OCCO3)C1 (stereo unspecified)
→ 4, -7%, -3, 0.9%, 5, -1, 2.4
CCC(=O)C1CCCN(C(=O)CCc2nnc(-c3ccc4c(c3)OCO4)o2)C1 (stereo unspecified)
→ 1, 16%, -11, -2.0%, -10, 8, -4.1
Cc1ccc(NC(=O)c2ccco2)nc1
→ 0, /, -26, -1.1%, -6, /, -6.7
O=S(=O)(NCCSCc1c(Cl)cccc1Cl)c1ccc2c(c1)OCCO2
→ -4, 20%, -11, -5.6%[38.3 µM], -3, 12, -1.0

Further records
SMILES	Six1-Eya2 blk	Sfp inh	D2 potentiator	PINK1 expr mod	CtBP-E1A blk	TRPV1 potentiator	D2 ag
CN1CCN(CC(O)COc2ccc(C(=O)O)cc2)CC1 (stereo unspecified)	11	15%	-11	2.8%	0	23	1.1
CCc1nc2ccc(C(=O)Nc3cc(-c4ccccc4)ccc3OC)cn2c1N(CC)Cc1cccc(Br)c1	2	/	0	0.7%	4	/	-6.0
COc1cc(C2=NOC(C(=O)NCc3cccs3)C2)cc(OC)c1OC (stereo unspecified)	5	-1%	-6	5.6%	5	-7	-1.2
CC(=O)[C@@H]1[C@@H](C)N(Cc2ccccc2)C(=O)N[C@H]1c1cccc(C(F)(F)F)c1	7	-3%&12%	-4	1.6%	7	-28	0.0
CN(Cc1cccs1)C(=O)Cc1c[nH]c2ccccc12	-4	13%	-17	0.6%	-14	7	-5.3
Cc1cccc(NC(=S)N(CCN(C)C)Cc2cc3cc(C)ccc3[nH]c2=O)c1	-6	-7%	-16	3.0%	?	-8	-2.3
Cc1cccc(OCCNC(=O)c2cc(C3CC3)nc3c2cnn3C(C)C)c1	18	/	-4	0.6%	-9	/	-2.8
C/C=C(\C)c1nnc(NC(=O)c2ccco2)s1	-3	7%	-8	-0.9%	1	-15	-4.0
O=C(COc1coc(CN2CCN(c3ccccc3F)CC2)cc1=O)NC1CCCC1	6	/	0	-1.0%	-29	-31	5.6
CN(CC(=O)Nc1ccc2c(c1)CCC2)CC(=O)Nc1ccccc1Br	-2	7%	-14	0.2%	/	-1	1.8
CCCn1c(SCC(=O)c2cc(C)n(C3CC3)c2C)n[nH]c1=O	-14	/	-18	-1.7%	1	-15	1.4
C/C(N)=C(/C#N)C(=O)COC(=O)[C@@H](NC(=O)c1ccccc1Cl)C(C)C	11	18%	0	0.0%	12	13	-4.4
N#CC1=C(N)N(c2ccc(F)cc2)C2=C(C1c1ccc(O)cc1)S(=O)(=O)CC2 (stereo unspecified)	-13	-92%	1	4.0%	-9	5	-1.2
COc1cccc(NC(=O)c2cccc(N3C(=O)C4CCC(C)CC4C3=O)c2)c1 (stereo unspecified)	0	8%	-3	1.3%	5	-13	5.8
CN(C(=O)CSc1ncnc2sc(-c3ccccc3)cc12)C1CCS(=O)(=O)C1 (stereo unspecified)	-2	4%	-3	1.0%	-15	-5	-4.9
CCOc1ccc(OCC)c(NS(=O)(=O)c2ccc3c(c2)CCN3C(=O)C2CCC2)c1	-1	14%	-10	5.9%	-2	-5	-3.0
CCC(C)(C)NC(=O)C(c1ccc(F)cc1)N(Cc1ccc(OC)cc1)C(=O)c1cnccn1 (stereo unspecified)	-5	13%	-9	-0.9%	0	-6	3.3
Cc1ccc(C)c(Nc2cc(C)nc3ccccc23)c1	-4	/	-18	1.6%	/	/	-6.8
COc1ccc(C(=O)/C=C/Nc2ccc(S(N)(=O)=O)cc2)cc1OC	-11	-3%	2	2.9%	-14	7	?
Cc1c(NC(=O)Nc2cc(Cl)ccc2Cl)c(=O)n(-c2ccccc2)n1C	0	16%	6	-1.3%	0	4	-3.9
CSCCC(NS(=O)(=O)c1ccc(Br)cc1)C(=O)OCC(=O)NC1CC1 (stereo unspecified)	10	21%	5	-0.7%	-8	1	4.9
CC1CC(C)(C)NC(=S)N1CC(=O)N1CCN(Cc2ccccc2)CC1 (stereo unspecified)	7	-9%	-2	-0.6%	9	-11	-0.3
